MT1-MMP reporter – inhibitors of MT1-MMP promoter transcription, cell-based, luciferase reporter, luminescence (AID 618); MT1-MMP promoter luciferase reporter cells, luminescence; calls from a first round at 10 µM; hits with a dose series show EC50 in µM; hit rate 0.62% among 87,000;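 active = over half of the reporter light lost at 10 µM or EC50 under 50 µM; inactive = the rest and hits that failed the dose series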;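 note: actives suppress MT1-MMP promoter-driven transcription so potencies describe inhibitors; HT1080 fibrosarcoma cells; overnight exposure; toxic or luciferase-blocking compounds were not removed from the actives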
Hsc70 – Hsc70 inhibitors, probe displacement, primary screen, biochemical, fluorescence polarization (AID 568) | Hsc70 fluorescence polarization, probe displacement; higher % means a stronger effect; strong numbers were not always called active | 83,000 tested, under 10 active | displacement, % at 20 µM; hits with a dose series show IC50 in µM;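 active = displacement above 50% without optical interference and an IC50 on retest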;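 note: ATPase domain with a fluorescein-tagged ATP probe; 0% = vehicle and 100% = excess ADP; read after one hour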
WNV NS2B-NS3 inh – WNV NS2B-NS3 proteinase inhibition. P06935. WNV NS2B-NS3 protease, fluorogenic substrate Ex360/Em465; hits give low values. hit rate 0.18% among 65,000. z-score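 (tested at a level between 10 and 100 µM)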;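 active = z-score at -3 or under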;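 note: score is relative to mean and spread of the compound wells of a plate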
Target sequence (P06935 1371-1501 limits assumed): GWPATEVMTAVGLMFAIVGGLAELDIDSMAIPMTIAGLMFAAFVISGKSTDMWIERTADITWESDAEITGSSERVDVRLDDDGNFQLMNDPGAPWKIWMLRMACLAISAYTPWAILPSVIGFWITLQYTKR
Target sequence (P06935 1502-1679 limits assumed): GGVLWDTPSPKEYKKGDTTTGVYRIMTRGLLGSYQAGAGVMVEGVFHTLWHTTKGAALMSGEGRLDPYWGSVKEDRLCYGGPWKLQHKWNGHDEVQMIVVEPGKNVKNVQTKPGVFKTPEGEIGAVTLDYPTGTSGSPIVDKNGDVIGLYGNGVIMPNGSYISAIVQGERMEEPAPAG
* = called active by the depositor; i = inactive; x = no result given.

entry	SMILES	MT1-MMP reporter	Hsc70	WNV NS2B-NS3 inh
1	COc1nc(C)ccc1-c1noc(-c2ccccn2)n1	i	-8.6%	-0.38
2	O=C(Nc1cccc(O)c1)c1ccc(Br)cc1	i	2.9%	-0.87
3	COc1cc(OC)cc(-c2nnc(SCC(=O)N3CCCCC3)o2)c1	i	2.0%	0.66
4	CCOC(=O)C1CCN(c2ncnc3c2cnn3-c2ccc(Cl)cc2)CC1	i	2.2%	1.1
5	Cc1cc(C(=O)CSc2nn3c(=O)c(C(C)(C)C)nnc3s2)c(C)n1-c1ccc(F)cc1	i	0.6%	x
6	CCOc1ccccc1C(C(=O)NC1CCCC1)N(Cc1ccco1)C(=O)CNC(=O)c1ccco1 (stereo unspecified)	i	3.1%	x
7	COc1ccc(CNc2nc3c(c(=O)n(Cc4ccc(Cl)cc4)c(=O)n3C)n2C)cc1	i	-2.2%	-0.75
8	COC(=O)NCC(c1cccnc1)N1CCOCC1 (stereo unspecified)	i	7.3%	0.14
9	O=c1[nH]c2cccnc2n1Cc1ccco1	i	-3.1%	-0.6
10	C=CCN1C(=O)CSc2ccc(C(=O)NCc3ccco3)cc21	i	0.8%	-1.2
11	N#CC(C(=O)NC1CC1)c1nc2ccccc2nc1N1CCCC1 (stereo unspecified)	i	5.0%	-0.78
12	CCn1c(SCC(=O)N2c3ccccc3Sc3ccccc32)nc2c1c(=O)n(C)c(=O)n2C	i	-10%	0.69
13	Cc1cccc(Nc2ncnc3nc[nH]c23)c1C	i	-4.1%	0.15
14	O=C(N1CCOCC1)N(CCN1CCOCC1)Cc1cccc(Cl)c1	i	2.4%	-0.43
15	CCOC(=O)C1CCN(C(=O)CS(=O)Cc2nc(-c3ccc(C)cc3)oc2C)CC1 (stereo unspecified)	i	3.8%	1.4
16	CC(C)(C)c1nc2ccccc2c(=O)n1N1C(=O)c2ccccc2C1=O	i	-6.4%	x
17	O=C(NCCO)c1cccc(S(=O)(=O)N2CCCCC2)c1	i	9.1%	1.1
18	Cc1c(Br)c([N+](=O)[O-])nn1CC(=O)NCc1cccnc1	i	0.7%	x
19	CC1(C)Oc2ccc(C(=O)N3CCOCC3)cc2N(CC(=O)N2CCOCC2)C1=O	i	-1.1%	0.52
20	CC1(C(=O)NC2CCCCC2)CCC(=O)N1Cc1cccs1 (stereo unspecified)	i	1.1%	-0.29
21	O=C(CSc1nnc(-c2cccs2)o1)N1CCCc2ccccc21	i	-1.0%	-0.21
22	O=c1cc(-c2ccccc2)c2ccc(O)c(CN3CCCCC3)c2o1	i	-7.5%	-1.9
23	O=C(CSc1ccc(-c2ccccc2)nn1)N1CCOCC1	i	3.9%	-0.83
24	O=C(CSc1nc2ccccc2o1)Nc1ccc(N2CCOCC2)cc1	i	-4.4%	0.81
25	CCN(CC)C(=O)CSc1nc2ccccc2c(=O)n1OC	i	3.4%	-0.06
26	Cc1cc(-c2ccccc2)nc2[n+]1CCN2C	i	0.8%	-1.1
27	COc1ccc(OC)c(C2C(C#N)=C(N)Oc3cc(C)n(Cc4ccccn4)c(=O)c32)c1 (stereo unspecified)	i	-1.0%	-0.33
28	O=C(c1ccc(-c2ccccc2)cc1)N1CCN(c2nc3ccccc3o2)CC1	i	4.3%	-0.14
29	CCCn1nc(C(=O)NCc2ccccn2)c2ccccc2c1=O	i	-1.5%	-0.41
30	CC(=O)NC(CCS(C)(=O)=O)C(=O)Nc1ccccc1Cl (stereo unspecified)	i	-0.8%	0.1
31	Nn1c(SCC(=O)Nc2ccccc2F)nc2ccccc2c1=O	i	-0.7%	0.3
32	O=C(Nc1ncc(Cl)cn1)c1cccs1	i	4.5%	x

2 records picked at random from the list so far:
entry	SMILES	MT1-MMP reporter	Hsc70	WNV NS2B-NS3 inh
25	CCN(CC)C(=O)CSc1nc2ccccc2c(=O)n1OC	i	3.4%	-0.06
30	CC(=O)NC(CCS(C)(=O)=O)C(=O)Nc1ccccc1Cl (stereo unspecified)	i	-0.8%	0.1

(list continues)
entry	SMILES	MT1-MMP reporter	Hsc70	WNV NS2B-NS3 inh
33	CCCN1C(=O)CC(c2ccco2)Sc2ccccc21 (stereo unspecified)	i	-4.7%	2
34	O=C(CN1CCN(Cc2ccccc2Cl)C1=O)NCC1CCCO1 (stereo unspecified)	i	3.1%	1.7
35	CCOC(=O)C1=C(C)N(CCO)C(=O)NC1c1cccc(O)c1 (stereo unspecified)	i	1.6%	-1
36	COc1ccc(C(CNC(=O)c2cc(=O)[nH]c3ccccc23)N2CCCC2)cc1 (stereo unspecified)	i	1.7%	0.25
37	NC(=O)c1ccccc1NC(=O)CS(=O)(=O)Cc1ccccc1	i	3.8%	-0.67
38	CCCCCCOc1ccc(/C(N)=N/O)cc1	i	2.3%	-0.32
39	Cn1c(=O)c(=O)n(C)c2cc(S(=O)(=O)N3CCOCC3)ccc21	i	-2.7%	-0.19
40	CCOC(=O)c1cnc(SCC)[nH]c1=O	i	1.6%	-0.49
41	CCOC(=O)c1c(C)n(C)c2c(C)cc(O)c(OC(C)=O)c12	i	-1.8%	0.51
42	CC(C)Cn1c(N)c(C(=O)CSc2ccc3c(c2)OCCO3)c(=O)n(C)c1=O	i	-0.1%	0.29
43	CC1=C(C#N)c2nc(N)c(C#N)c(C)c2/C1=C\c1ccccc1	i	-6.4%	-1.1
44	c1cc2c(nn1)CCc1nonc1-2	i	2.3%	-0.5
45	COc1ccccc1CN1CCN(C(=O)c2ccncc2)CC1	i	-2.2%	x
46	CCCCC(=O)N=c1sc2cc(S(C)(=O)=O)ccc2n1C	i	3.0%	-0.3
47	Cc1cc(Cl)c(OCCCSc2nc(C)cc(=O)[nH]2)c(Br)c1	i	2.3%	x
48	Fc1ccc(OCc2nnc(SCCN3CCOCC3)o2)cc1	i	5.5%	x

The last six records of the part before come first, to join the parts:
Below each compound – MT1-MMP reporter, Hsc70, WNV NS2B-NS3 inh
43) CC1=C(C#N)c2nc(N)c(C#N)c(C)c2/C1=C\c1ccccc1
  i, -6.4%, -1.1
44) c1cc2c(nn1)CCc1nonc1-2
  i, 2.3%, -0.5
45) COc1ccccc1CN1CCN(C(=O)c2ccncc2)CC1
  i, -2.2%, x
46) CCCCC(=O)N=c1sc2cc(S(C)(=O)=O)ccc2n1C
  i, 3.0%, -0.3
47) Cc1cc(Cl)c(OCCCSc2nc(C)cc(=O)[nH]2)c(Br)c1
  i, 2.3%, x
48) Fc1ccc(OCc2nnc(SCCN3CCOCC3)o2)cc1
  i, 5.5%, x
49) C/C(=C\C(=O)c1ccccc1)Nc1cccc(O)c1
  i, 3.8%, -0.65
50) Cc1c(NC(=O)C(C)OC(=O)[C@@H](NC(=O)c2ccccc2)C(C)C)c(=O)n(-c2ccccc2)n1C (stereo partly specified)
  i, 2.5%, x
51) CCc1c(C)[nH]n(-c2ccc(Oc3ccccc3)c(S(=O)(=O)O)c2)c1=O
  i, 2.6%, -1.1
52) Cc1ccc(NC2=CC(=O)CC(C)(C)C2)c(N)c1
  i, 4.3%, -0.12
53) CCOC(=O)c1nn(-c2ccc(OC)cc2)c(=O)c2c(NC(=O)c3ccco3)scc12
  i, 0.5%, -1
54) O=C(c1cnsn1)N1CCN(c2ccccn2)CC1
  i, -7.0%, -0.02
55) CC(=O)Nc1ccc(NC(=O)CN(C)CCC#N)cc1
  i, 3.8%, -0.96
56) Cc1ccc(CN(C)C(=O)C2CCCN2C(=O)c2cccs2)o1 (stereo unspecified)
  i, -3.1%, -0.13
57) O=C(NCCN1CCN(c2ccccc2)CC1)C1CCN(S(=O)(=O)N2CCOCC2)CC1
  i, -4.7%, 0.67
58) O=C1CC(N2CCN(C(c3ccccc3)c3ccccc3)CC2)C(=O)N1Cc1ccc(N2CCCC2=O)cc1 (stereo unspecified)
  i, -3.1%, x
59) CC(C)Cn1cnc2c(c1=O)c1nc3ccccc3nc1n2Cc1ccc2c(c1)OCO2
  i, -4.6%, 1.2
60) CCc1ccc(NC(=O)N(C2CCCCC2)C(C)c2cccnc2)cc1 (stereo unspecified)
  i, 1.6%, x
61) O=C(Nc1nc(-c2cc(Cl)sc2Cl)cs1)c1cccs1
  i, -4.3%, 0.15
62) CC(C)N(Cc1nc(-c2ccc(Cl)cc2)no1)C(=O)C(c1ccccc1)c1ccccc1
  i, -10%, x
63) CCOC(=O)c1cnc(-n2nc(C)cc2C)nc1NCCO
  i, 1.5%, x
64) CN(C)CCn1c(C(=O)O)cc2ccccc21
  i, -1.5%, 1.1
65) CCc1nnc(NC(=O)CN2C(=O)c3ccccc3C2=O)s1
  i, -2.2%, 0.08
66) Cn1c(C(=O)N2CCc3ccccc32)cc2c(=O)n3ccccc3nc21
  i, -1.8%, 0.66
67) O=C(Nc1nncs1)c1ccc(S(=O)(=O)c2ccccc2)cc1
  i, 2.9%, 0.17
68) COc1ccccc1-c1nnc(NC(C)=O)s1
  i, 0.9%, 0.91
69) N#CCCN1CCN(C2=NC(=O)C(=C3CCCCC3)S2)CC1
  i, -5.2%, -1.1
70) O=[N+]([O-])c1ccc(/C=N/N/C(=N/c2ccccn2)c2ccccn2)cc1
  i, -1.1%, x
71) CCOc1ccccc1-n1cnc2cc(C(=O)NCc3ccco3)ccc21
  i, 2.8%, -0.57
72) Nc1cc(N)nc(SCC(=O)N2CCCCC2)n1
  i, -2.6%, 1
73) Cn1ncc(C#N)c1NC(=O)C1CC(c2c(F)cccc2Cl)=NO1 (stereo unspecified)
  i, 8.0%, 1.3
74) CN(Cc1ccccc1)C(=O)CSc1nc2ccccc2c(=O)n1Cc1ccco1
  i, -2.5%, 0.26
75) CCOC(=O)C1=C(C)NC(=O)NC1c1ccccc1Cl (stereo unspecified)
  i, 8.0%, -0.13
76) COc1ccccc1/C=C/CN1CCOCC1
  i, -0.1%, -1
77) Cn1c(=O)c2c(nc(N3CCc4ccccc4C3)n2Cc2ccc(Br)cc2)n(C)c1=O
  i, 4.1%, -0.76
78) COc1ccc(S(=O)(=O)N2CCCC2C(=O)Nc2ccc(C)cc2)cc1 (stereo unspecified)
  i, 7.2%, 0.81
79) c1cncc(-c2nnc(-c3cccs3)o2)c1
  i, -1.6%, 0.49
80) O=S1(=O)C[C@@H](O)[C@@H](Nc2ccc(Cl)cc2)C1
  i, 2.5%, x
81) CCC(CC)C1C(C#N)=C(N)Oc2cc(C)oc(=O)c21 (stereo unspecified)
  i, -1.2%, x
82) CC1CC2(CCCCC2)Nc2ccc3ccccc3c21 (stereo unspecified)
  i, -0.6%, x
83) Cc1ccc(CNC(=O)Cc2cccs2)cc1
  i, 3.5%, x
84) CCOC(=O)CSc1cc(=O)n(CC)c2ccccc12
  i, -1.9%, x
85) Cc1ccc(-c2[nH]nc3c2C(c2ccoc2)C(C#N)=C(N)O3)cc1C (stereo unspecified)
  i, 3.7%, 0.3
86) O=S1(=O)CC/C(=N\O)c2ccccc21
  i, -0.2%, x
87) Cc1ccc(Sc2nnc(-c3ccccc3)cc2C#N)cc1
  i, 1.6%, x
88) CSc1nncc(-c2ccc(F)c(F)c2)n1
  i, 6.1%, -1.4
89) O=C(Cc1cccs1)NCc1ccccc1F
  i, 5.0%, -0.29
90) CC(=O)Nc1ccc(S(=O)(=O)NCc2cn3ccsc3n2)cc1
  i, -2.1%, -1.5
91) O=c1[nH]c(NCc2ccccc2)nc2c1CCC2
  i, 4.7%, -0.31
92) Cc1ccc(NCN2C(=O)c3ccccc3C2=O)c(C)c1
  i, -2.1%, 0.05
93) Nc1[nH]ncc1C(=O)Nc1cccc(C(F)(F)F)c1
  i, 0.3%, -0.12
94) Cc1ccc(S(=O)(=O)C(CCC(=O)N2CCOCC2)S(=O)(=O)c2ccc(C)cc2)cc1
  i, -2.1%, 0.86
95) CCOC(=O)c1c(C)nc(-c2ccccc2)nc1NC(C)=O
  i, -3.5%, -0.47
96) O=S(=O)(O)c1nc2ccccc2n1Cc1ccc(Cl)cc1Cl
  i, 0.2%, -0.03
97) COC(=O)c1cc(NC(=O)CC2C(=O)NCCN2C(=O)c2ccccc2)cc(C(=O)OC)c1 (stereo unspecified)
  i, -0.6%, 0.21
98) c1csc(-c2ccc3ccccc3n2)c1
  i, 1.2%, -0.22
99) COC(=O)CCSCC(=O)Nc1cc(C)on1
  i, 0.5%, -1.3
100) Cc1cccc(-n2nnnc2SCC(=O)c2cc(C)n(CC3CCCO3)c2C)c1 (stereo unspecified)
  i, -0.9%, 1.5
101) CCCCNC(=O)c1ccc(CNc2c(N3CCC(C(=O)OCC)CC3)c(=O)c2=O)cc1
  i, 1.3%, x
102) Cc1ccc(OCC(=O)Nc2ccc(O)c(C(=O)O)c2)cc1C
  i, 1.7%, 1.1
103) Cc1cccc(OCC(O)CN2CCN(C3CCCCC3)CC2)c1 (stereo unspecified)
  i, 4.6%, -0.56
104) COc1ccccc1N(CC(=O)NCCSc1ccccc1)S(C)(=O)=O
  i, 4.7%, -0.78
105) COc1cccc(C(=O)SC2=NCCS2)c1
  i, -0.2%, -0.05
106) Cn1c(=O)oc2cc(S(=O)(=O)N3CCCC(C(=O)N4CCc5ccccc5C4)C3)ccc21 (stereo unspecified)
  i, -1.9%, 0.38
107) COc1cccc(-n2c(SCC#N)nnc2-c2cnccn2)c1
  i, -0.6%, -0.88
108) O=C1OC2CC3CC1CC(O)(C3)C2 (stereo unspecified)
  i, 3.5%, 0.46
109) CC(Oc1cc(C(F)(F)F)cc(C(F)(F)F)c1)C(=O)NC(N)=O (stereo unspecified)
  i, 1.6%, 1.3
110) CCN(CC)CCN=C1CCCc2ccccc2N1
  i, -0.8%, -0.52

The list is partial; count on the stated rates, not on these rows.
